Mac1 fbg inh = inhibitors of CD11b/CD18 adhesion to fibrinogen, primary screen, K562 cells, luminescence | ATPlite luminescence; Mn2+ added to activate the integrin | inhibition, % at 10 µM | 0.54% of 93,000 active;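 active = primary inhibition of 50% or more at 10 µM, then 40% or more on retest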; note: some results filed as inactive read as strong as hits
ERa coact pot = enhancers of ERα–SRC-1 coactivator binding, primary screen, biochemical, TR-FRET, ERα LBD, low estradiol. Estrogen receptor (Homo sapiens), P03372. TR-FRET ERalpha-LBD/SRC-Cy5 coactivator binding, 2 h; 100 = basal binding, no effect. coactivator binding (% of control), % at 25.6 µM. 1.3% of 86,000 active; in the data active = activity above about 200%;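 note: binding measured in presence of low estradiol as agonist stimulus; 0% = peptide alone without receptor and 100% = receptor with peptide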
Target sequence (P03372 whole entry, looked up, the tested form may be a part): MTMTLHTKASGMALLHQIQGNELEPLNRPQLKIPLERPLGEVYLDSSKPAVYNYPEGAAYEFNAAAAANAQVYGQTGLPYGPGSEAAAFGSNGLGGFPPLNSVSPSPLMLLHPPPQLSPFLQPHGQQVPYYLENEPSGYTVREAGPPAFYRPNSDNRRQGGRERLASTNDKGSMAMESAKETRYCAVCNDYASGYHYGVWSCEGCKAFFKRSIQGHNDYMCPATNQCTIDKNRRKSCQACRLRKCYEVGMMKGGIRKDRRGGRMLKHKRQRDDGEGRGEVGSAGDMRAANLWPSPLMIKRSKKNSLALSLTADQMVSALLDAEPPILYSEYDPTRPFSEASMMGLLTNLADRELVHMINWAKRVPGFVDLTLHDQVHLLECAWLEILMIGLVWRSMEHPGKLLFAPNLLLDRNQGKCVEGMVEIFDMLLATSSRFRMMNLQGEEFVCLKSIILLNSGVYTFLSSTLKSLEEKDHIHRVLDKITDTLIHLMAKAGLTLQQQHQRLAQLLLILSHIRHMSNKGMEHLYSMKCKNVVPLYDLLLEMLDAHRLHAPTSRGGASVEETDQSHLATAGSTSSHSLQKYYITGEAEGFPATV
PLK1 PBD inh = Plk1 polo box domain binding inhibitors, primary screen, biochemical, fluorescence polarization. Serine/threonine-protein kinase PLK1 (Homo sapiens), P53350. Plk1 PBD phosphopeptide binding. inhibition, %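 (tested at about 20 µM)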. 0.13% of 97,000 active; in the data active = inhibition above about 34%, passing the limit was not always enough
PLK1 inh = human PLK1 kinase inhibitors, primary screen, biochemical, TR-FRET; AID 619, 2007; Serine/threonine-protein kinase PLK1 (Homo sapiens), P53350; recombinant PLK1 kinase, TR-FRET peptide phosphorylation; inhibition, % at 10 µM; 0.53% of 97,000 active;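 active = inhibition of 50% or more in the single-concentration screen; inactive = inhibition below 50%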;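 note: 0% = DMSO max control and 100% = H-89 dihydrochloride min control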
ERb SRC1 inh = inhibitors of ERβ-SRC1 coactivator interaction, primary screen, biochemical, TR-FRET, ERβ LBD, SRC-1 peptide | Estrogen receptor beta (Homo sapiens), Q92731 | TR-FRET ER-beta LBD / SRC1-Cy5 peptide binding; receptor agonist-loaded with 1 µM estradiol | inhibition, % at 25.6 µM | 1.3% of 86,000 active | AID 633, 2007;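 active = compounds whose percent inhibition of the receptor-coactivator binding signal exceeds about 50% in the single-dose screen, limit read from the data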;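 note: 0% = receptor plus peptide wells without compound and 100% = peptide-only wells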
Mac1 fbg enh = enhancers of CD11b/CD18 adhesion to fibrinogen, primary screen, K562 cells, luminescence; activation, % at 10 µM; ATPlite luminescence; 0.07% of 93,000 active; AID 1499, 2009;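 active = 10 µM primary screen giving 50% or more activity, confirmed by 40% or more on retest at that dose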; note: strong numbers were not always called active
ERa coact inh = ERα–SRC-1 coactivator interaction inhibitors, primary screen, biochemical, TR-FRET, ERα LBD, estradiol-bound | Estrogen receptor (Homo sapiens), P03372 | TR-FRET ER-alpha LBD / SRC-1 peptide | inhibition, % at 25.6 µM | 1.7% of 86,000 active; in the data active = inhibition above about 50%;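 note: 0% = receptor plus peptide control and 100% = peptide only without receptor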
Rev-RRE block = HIV-1 Rev-RRE binding inhibitors, primary screen, biochemical, FRET, protein-RNA interaction; 0.79% of 97,000 active; Rev peptide-RRE RNA binding; inhibition, % at 8 µM; P05866;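 active = inhibition above the screen-wide mean plus 3 SD, cut at about 35% in these data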;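 note: 0% = median DMSO wells and 100% = median Neomycin B control wells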
Target sequence (P05866 whole entry, looked up): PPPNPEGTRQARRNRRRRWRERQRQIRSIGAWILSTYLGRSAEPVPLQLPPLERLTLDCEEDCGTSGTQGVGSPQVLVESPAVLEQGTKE
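Assay system: labelled RRE RNA duplex and labelled Rev peptide / Medium: HEPES pH 7.5 salt buffer with EDTA / Reagent: labelled Rev peptide / Schedule: 5 + 15 min at 25 °C / Signal: FRET, excitation 480 nm, emission 540 nm donor and 671 nm acceptor / Benchmarks: DMSO and neomycin B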
* = called active by the depositor; / = not tested or not shown; [ ] = dose if it differs, or a comment. An excerpt; count on the stated rates, not on these rows.

Mac1 fbg inh	ERa coact pot	PLK1 PBD inh	compound	PLK1 inh	ERb SRC1 inh	Mac1 fbg enh	ERa coact inh	Rev-RRE block
11.0	98.8	-20.9	Cc1ccc(OCCn2c(C3CC(=O)N(Cc4ccccc4)C3)nc3ccccc32)cc1 (stereo not drawn)	-2.4	2.3	-7.4	6.1	-2.8
-14.0	101.5	5.9	Cc1cc(C)c2c(CC(=O)Nc3ccc(Cl)cn3)coc2c1	-15.3	-1.8	-0.8	-0.7	-5.7
-23.6	/	3.4	CC(C)CCNC(=O)[C@@H](NC(=O)c1c(F)cccc1F)C(C)C	-11.9	/	-1.5	/	2.4
-24.2	78.7	12.9	CS(=O)(=O)N1CCc2cc(C(=O)OCC(=O)c3ccccc3)ccc21	-30.0	10.9	-5.0	22.8	6.3
/	35.0	9.5	COc1cccc(Oc2cn[nH]c2-c2ccc(O)cc2O)c1	17.9	8.5	/	6.3	2.1
-22.4	124.0[fluorescence artefact?]	8.7	N#Cc1cn(CC(=O)N2CCCC2)c2ccccc12	-3.7	-9.3[fluorescence artefact?]	2.7	24.4	3.1
15.8	105.2	-14.1	O=c1cc(NC2CCCCC2)c2ccccc2o1	-8.0	-9.7	-2.9	-5.6	3.6
3.8	85.1	-5.8	CCc1ccc(N2C(=O)c3sc4nnc(-c5ccccc5)c(=O)n4c3C2=O)cc1	-3.7	11.9	-3.2	6.8	9.9
5.5	106.3	18.5	O=C(O)c1cc(-c2ccccc2Cl)n[nH]1	-30.0	-12.8	-1.1	-4.0	-0.5
/	95.9[fluorescence artefact?]	-0.5	C=CCn1c(SCC(=O)NCCCC)nc2scc(-c3ccco3)c2c1=O	-12.2	21.2	/	27.0	12.0
/	97.6	5.4	CC1=CCC(C(=O)O)C(C(=O)Nc2nc3ccc(S(C)(=O)=O)cc3s2)C1 (stereo not drawn)	-10.1	5.7[fluorescence artefact?]	/	6.9	5.8
-3.8	/	-2.2	Cc1ccc(CNC(=O)CCc2ccc(S(=O)(=O)NC3CCCCC3)cc2)cc1	-10.8	/	1.3	/	9.3
-6.3	/	-27.0	O=C(Nc1ccccc1Oc1ccccc1)c1cccc([N+](=O)[O-])c1	-15.2	/	1.2	/	9.6
-6.5	88.6	2.2	CCOc1ccccc1CN1CCN(S(=O)(=O)CC)CC1	-7.0	-0.7	-3.9	-17.5	-2.5
8.2	115.4	-1.4	CCc1nc(NCC2CCCN2CC)c2nnn(Cc3ccccc3F)c2n1 (stereo not drawn)	-6.1	1.2	-1.0	-1.7	5.1

Sorted by value in PLK1 inh (ascending): 3 from the list above
Mac1 fbg inh	ERa coact pot	PLK1 PBD inh	compound	PLK1 inh	ERb SRC1 inh	Mac1 fbg enh	ERa coact inh	Rev-RRE block
5.5	106.3	18.5	O=C(O)c1cc(-c2ccccc2Cl)n[nH]1	-30.0	-12.8	-1.1	-4.0	-0.5
/	95.9[fluorescence artefact?]	-0.5	C=CCn1c(SCC(=O)NCCCC)nc2scc(-c3ccco3)c2c1=O	-12.2	21.2	/	27.0	12.0
11.0	98.8	-20.9	Cc1ccc(OCCn2c(C3CC(=O)N(Cc4ccccc4)C3)nc3ccccc32)cc1 (stereo not drawn)	-2.4	2.3	-7.4	6.1	-2.8

Next part:
Mac1 fbg inh	ERa coact pot	PLK1 PBD inh	compound	PLK1 inh	ERb SRC1 inh	Mac1 fbg enh	ERa coact inh	Rev-RRE block
13.3	96.6[fluorescence artefact?]	4.7	Cc1ccc(-c2noc(CSc3nnc(Cc4ccccc4)n3-c3ccc(Cl)cc3)n2)cc1	-6.8	-2.2	-1.0	-4.8	8.2
7.2	/	-23.8	CN(C)c1oc(-c2ccccc2)nc1C#N	-1.9	/	-3.8	/	8.1
12.9	179.0[fluorescence artefact?]	8.8	CCCCn1c(CN2C(=O)c3ccccc3C2=O)nc2ccccc2c1=O	2.0	51.0*[fluorescence artefact?]	-0.2	57.8*[fluorescence artefact?]	-3.0
-4.8	99.1[fluorescence artefact?]	-20.4	O=C1CCC(=O)N1c1nc2n(n1)C(c1ccccc1)C=C(c1ccc(Br)cc1)N2 (stereo not drawn)	-3.7	17.4[fluorescence artefact?]	1.0	20.6[fluorescence artefact?]	84.5*[fluorescence artefact?]
/	94.2	4.3	CN1c2ccccc2Oc2c(c(=O)n(C)c(=O)n2C)C1c1cccc([N+](=O)[O-])c1 (stereo not drawn)	-7.7	-9.2	/	-6.4	2.4
-14.4	/	-13.3	O=C(c1cc(S(=O)(=O)N2CCOCC2)ccc1F)N1CCCc2ccccc21	-4.4	/	1.6	/	-1.9
-8.0	111.8	-16.6	COc1ccc(-c2cnnn2-c2ccc(NC(=O)c3ccco3)cc2)cc1OC	-0.2	-8.0	3.8	-1.3	5.6
-5.0	107.0	-10.1	O=C(CSc1nnc(Cn2c(=O)sc3ccccc32)n1CCc1ccccc1)N1CCOCC1	-5.3	-1.3	1.7	-10.9	-2.1
-2.9	96.2	-17.9	COc1ccc(N=C2SC(CC(=O)Nc3ccc(OC)cc3OC)C(=O)N2C)cc1 (stereo not drawn)	-5.7	15.0	-0.7	-7.4	10.1
-3.6	/	-23.9	CCCCCCCC(=O)N/N=C(/C)c1c(O)cc(C)oc1=O	-23.4	/	15.5	/	6.3
-3.2	86.9	-26.6	COc1ccc(C(=O)Nc2cc(-c3nn4c(C)nnc4s3)ccc2C)cc1	-14.7	1.7[fluorescence artefact?]	-2.6	8.1	3.0
1.1	110.1[fluorescence artefact?]	-22.7	Cn1c(=O)c2[nH]cnc2n(-c2ccccc2)c1=O	39.7	23.0	1.3	5.7	3.8
-12.6	106.2	-4.8	O=C(c1ccncc1)N1CCN(C(=O)c2cccs2)CC1	-9.8	-4.3	-3.4	-5.5	8.0
3.9	/	18.6	Cc1cc(C)nc(/N=C(\N)Nc2cc([N+](=O)[O-])ccc2C)n1	-9.9	/	-1.6	/	4.7
-10.7	103.0	-4.8	O=C(O)c1cccc(S(=O)(=O)Nc2ccccc2Cl)c1	-5.6	-1.9[fluorescence artefact?]	-0.3	-5.2	3.7
4.1	116.7	4.2	Cc1nn(C)c(C)c1NC(=O)c1ccnn1C	5.6	-14.1	2.3	-6.2	-1.7
23.1	105.4	31.1	O=C(Nc1ccc2oc(=O)ccc2c1)c1ccco1	-14.9	2.4	0.9	1.7	3.5
-15.8	/	6.8	Cc1cccc(OCC(=O)NNC(=O)CSc2ncc(C#N)c(N)n2)c1	-10.7	/	-0.8	/	14.1
-4.6	70.4	-14.7	CCOc1ccc(-c2ncncc2-c2ccc(OC)cc2)c(O)c1	7.5	27.9	-1.9	12.6	10.8
3.6	/	-14.4	N#Cc1cnn2cc(-c3ncc(C(F)(F)F)cc3Cl)cnc12	-8.2	/	-1.7	/	-2.3
20.5	54.9[fluorescence artefact?]	-16.0	COc1ccc(-c2nc(N)nc(C)c2Oc2ccccc2Br)c(O)c1	6.1	17.6[fluorescence artefact?]	3.2	3.3[fluorescence artefact?]	24.9
-5.1	109.9	7.5	C#CCNc1nc(CC)nc2c1nnn2Cc1ccccc1F	-6.5	-1.9	-4.4	-2.4	5.2
-14.3	122.2	-6.2	O=C1c2ccccc2C(=O)N1CCCc1nc2ccccc2c(=O)n1Cc1ccco1	-8.7	10.2	-3.8	16.9[fluorescence artefact?]	6.4
/	103.6	-32.6	Cc1ccc2[nH]c(=O)c(-c3noc(-c4ccncc4)n3)cc2c1	1.2	8.3	/	4.5	4.1
/	/	9.6	Cc1cc(NC(=O)c2cc(C(C)C)on2)no1	-3.5	/	/	/	8.9
-10.3	149.3	4.0	Cc1ccc(OCc2nnc(SCC(=O)Nc3cc(C)on3)n2C)cc1	-8.8	13.8	-3.4	21.2[fluorescence artefact?]	5.0
2.1	68.6	-1.4	NC(=O)c1ccsc1NC(=O)c1ccco1	-6.3	29.9	6.1	10.6	5.7
-5.4	104.5	-6.2	Cc1ccccc1NC(=O)C1CC(Cl)=CCC1C(=O)O (stereo not drawn)	-8.3	-14.2[fluorescence artefact?]	3.7	4.2	8.5
/	111.0	13.3	O=C(NC1CCCCC1)C(c1ccc(F)cc1)N(Cc1ccc2c(c1)OCO2)C(=O)c1cnsn1 (stereo not drawn)	-11.2	-18.0	/	-21.4	0.0
-13.3	111.5	-9.2	Cc1ccc2[nH]c(=O)c3cc(C(=O)N(C)Cc4ccco4)sc3c2c1	-2.5	6.5	-2.7	1.8	6.8

Entries of single compounds from above:
NC(=O)c1ccsc1NC(=O)c1ccco1 as listed: Mac1 fbg inh = 2.1; ERa coact pot = 68.6; PLK1 PBD inh = -1.4; PLK1 inh = -6.3; ERb SRC1 inh = 29.9; Mac1 fbg enh = 6.1; ERa coact inh = 10.6; Rev-RRE block = 5.7
CCOc1ccc(-c2ncncc2-c2ccc(OC)cc2)c(O)c1 as listed: Mac1 fbg inh = -4.6; ERa coact pot = 70.4; PLK1 PBD inh = -14.7; PLK1 inh = 7.5; ERb SRC1 inh = 27.9; Mac1 fbg enh = -1.9; ERa coact inh = 12.6; Rev-RRE block = 10.8
O=C(Nc1ccc2oc(=O)ccc2c1)c1ccco1 as listed: Mac1 fbg inh = 23.1; ERa coact pot = 105.4; PLK1 PBD inh = 31.1; PLK1 inh = -14.9; ERb SRC1 inh = 2.4; Mac1 fbg enh = 0.9; ERa coact inh = 1.7; Rev-RRE block = 3.5

The results go on.
Mac1 fbg inh	ERa coact pot	PLK1 PBD inh	compound	PLK1 inh	ERb SRC1 inh	Mac1 fbg enh	ERa coact inh	Rev-RRE block
7.3	90.1[fluorescence artefact?]	14.6	CC(C)C(C)NC(=O)CSc1nc2scc(-c3ccco3)c2c(=O)n1-c1ccccc1 (stereo not drawn)	-5.5	-0.3[fluorescence artefact?]	42.9	30.4	1.0
11.7	/	-1.8	O=C(Nc1ccc(-c2cc3ccccc3oc2=O)c(Cl)c1)c1cccnc1	-16.4	/	1.8	/	-1.7
-4.7	103.9	22.8	Oc1ccccc1-c1nc(NCCN2CCOCC2)c2ccccc2n1	-10.3	3.4[fluorescence artefact?]	4.8	9.4	16.2
69.3	87.7	9.8	Cc1ccc2cc3c(nc2c1)N(Cc1ccco1)CC3	-3.6	-10.3	4.0	-3.3	5.4
9.8	/	3.4	Cc1cc(C)n(-c2ccc(C(=O)Nc3ccccc3N3CCOCC3)cc2)n1	-3.8	/	-1.2	/	11.4
/	/	29.1	C/C(=N\NC(=O)c1ccccc1O)c1c(O)cc(C)oc1=O	-14.7	/	/	/	5.0
-23.4	85.7	-23.7	CCOc1ccc(NC(=O)c2cnsn2)cc1	-1.4	3.2[fluorescence artefact?]	-0.9	0.7	6.3
/	/	-17.8	Cc1cc(-c2csc(NC(=O)c3cc4ccccc4o3)n2)c(C)n1C	-1.2	/	/	/	23.6
/	116.0[fluorescence artefact?]	11.3	CC(=O)N1CCC(=O)N(C(C)C)c2ccccc21	-9.2	-15.6[fluorescence artefact?]	/	-0.2[fluorescence artefact?]	3.4
27.7	96.1	-11.4	CCNS(=O)(=O)c1ccc(NC(=O)c2cc(C(F)(F)F)nn2C)cc1	-12.6	22.4	-3.7	27.6	4.6
/	91.8	12.8	Cc1ccc(C(=O)CCC(=O)CCC(=O)O)cc1	-14.4	-4.6	/	-1.7	2.7
/	/	-8.7	CCN1CCc2c(sc(NC(=S)NC(=O)c3ccccc3)c2C#N)C1	-5.9	/	/	/	28.1
-15.3	103.6[fluorescence artefact?]	11.1	CCOc1ccc(N=CC2=C(O)CC(C)(C)CC2=O)cc1	38.3	-3.1[fluorescence artefact?]	0.6	30.9[fluorescence artefact?]	9.2
-1.3	94.1	3.9	Cn1c(=NC(=O)CSCC(=O)N2CCOCC2)sc2ccccc21	-3.1	-2.9	-1.4	-10.2	-3.2

Assay outcomes as filed in PubChem BioAssay.
